Bioassay records from PubChem BioAssay.
Sfp PPTase inh = inhibitors of Bacillus subtilis Sfp phosphopantetheinyl transferase; Q9F4F7; Biochemical Sfp PPTase activity, qHTS; Potency, µM, for the others: max response, negative = inhibition, usual class: inhibitors; 3.5% of 310,000 active; active = well fitted inhibition curve with a large enough effect; inconclusive = small, poorly fitted or top-dose-only effect, or another doubt; inactive = no such curve, though single readings can be large or run the other way;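 note: the enzyme is Sfp with the accession as filed and its product quenches rhodamine fluorescence; potency is the fitted concentration of half-maximal effect; 0% = enzyme reaction without inhibitor and -100% = no enzyme wells; top concentration of the series not given in the record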
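Reaction rates are the 30-min fluorescence difference (ex 525, em 598 nm) in wells containing 15 nM Sfp, 5 uM rhodamine-CoA and 12.5 uM BHQ-2-YbbR at pH 7.6 with 10 mM MgCl2.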
TRPML1 inh = human mucolipin-1 channel inhibition. Q9GZU1. 0.02% of 390,000 active. activity change, negative = inhibition, % (concentration not given with the values). TRPML1-inducible cells, Ca2+ dye fluorescence, FDSS; stronger effect = lower value; inhibition of EC80 agonist-evoked calcium signal. AID 624415; in the data active means activity change below about -50%; inconclusive means about -30% to -50%; inactive means above about -30%;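 note: stimulus is agonist 54-4 at its EC80 concentration; % is set by controls: 0 for no effect and ±100 for the full control effect; compound concentration not given in the record; the text of the record puts the active cut at -80%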
Target sequence (Q9GZU1 whole entry, looked up): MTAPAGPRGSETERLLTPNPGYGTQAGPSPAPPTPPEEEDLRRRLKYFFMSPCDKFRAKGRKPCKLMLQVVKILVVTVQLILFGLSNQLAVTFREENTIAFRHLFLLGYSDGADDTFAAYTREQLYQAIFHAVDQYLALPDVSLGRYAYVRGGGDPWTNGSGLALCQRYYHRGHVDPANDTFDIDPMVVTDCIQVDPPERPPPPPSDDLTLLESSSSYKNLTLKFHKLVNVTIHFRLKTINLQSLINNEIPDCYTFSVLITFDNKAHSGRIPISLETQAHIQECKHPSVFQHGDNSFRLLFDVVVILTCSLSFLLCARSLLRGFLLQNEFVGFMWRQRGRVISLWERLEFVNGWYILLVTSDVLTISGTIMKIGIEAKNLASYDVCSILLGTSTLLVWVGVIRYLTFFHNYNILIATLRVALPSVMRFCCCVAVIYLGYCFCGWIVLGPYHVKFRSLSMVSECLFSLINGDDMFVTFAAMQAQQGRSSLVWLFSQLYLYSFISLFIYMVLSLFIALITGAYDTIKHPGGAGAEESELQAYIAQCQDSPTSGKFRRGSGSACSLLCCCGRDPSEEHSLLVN
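Tet-induced TRPML1-DL cells loaded with Ca8 no-wash calcium dye were read kinetically on FDSS. Compound addition was followed by EC80 agonist 54-4 (4 uM final); inhibition was read over 110 s.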
gsp antagonist = gsp mutant antagonism | gsp-mutant cells, cAMP HTRF, 30 min; control for the full effect not named in the record | Potency, µM (doses to about 76.9 µM), without a hit: at the highest dose activity change, negative = inhibition, usual class: inhibitors | 0.4% of 340,000 active | AID 624288; active = falling curve of any shape with a large fitted effect; inconclusive = falling curve, mostly with a smaller effect; inactive = flat or rising curve; cell line not stated here;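 note: intracellular cAMP measured with PDE inhibitor Ro 20-1724 present during compound exposure; potency is the fitted concentration of half-maximal effect; % is set by controls: 0 for no effect and ±100 for the full control effect; nearly all actives have a fitted effect of over 65% in size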
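G418-selected cells were plated in DMEM/10% FBS for 16-24 h at 37C, then treated with compounds plus the PDE inhibitor […] (300 uM solution added) for 30 min at 37C. Intracellular cAMP was measured by HTRF after 30 min lysis at room temperature.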
gsp agonist = activates gsp, the McCune-Albright syndrome mutation; gsp mutant cells, cAMP HTRF, 30 min; control for the full effect not named in the record; Potency, µM (highest dose often 76.9 µM), inactives show at the top dose activation (cAMP increase), most hits filed as activators; 0.13% of 340,000 active; active = well fitted activation curve with a large enough effect; inconclusive = small, poorly fitted or top-dose-only effect, or another doubt; inactive = no such curve, though single readings can be large or run the other way; cell line not stated here;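 note: phosphodiesterase inhibitor Ro 20-1724 added with compounds to block cAMP breakdown; potency is the fitted concentration of half-maximal effect; nearly all actives have a fitted effect of over 60% in size; about a fifth of the inactives were tested at one dose only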
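Cells in DMEM/10% FBS with G418 were pretreated with compounds in DMSO plus […] (300 uM stock) for 30 min at 37C. cAMP was measured by HTRF (cAMP-d2 plus anti-cAMP antibody-K) after 30 min at room temperature.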
ClpP mod = qHTS Assay for Activators of ClpP | ATP-dependent Clp protease proteolytic subunit (Bacillus subtilis (strain 168)), P80244 | purified B. subtilis ClpP, FRET peptide cleavage, 20 min | Potency, µM (top dose mostly 57.5 µM), for inactives: at the highest dose activity change, negative = active | 1.9% of 340,000 active; active = well fitted falling curve with a large enough effect; inconclusive = small, poorly fitted or top-dose-only effect; inactive = no such curve, though single readings can be large or run the other way; note: potency is the fitted concentration of half-maximal effect; the source files actives as falling curves though it sought activators and does not explain the sign; nearly all actives have a fitted effect of over 65% in size; many hits overshoot -100%
Target sequence (P80244 whole entry, looked up): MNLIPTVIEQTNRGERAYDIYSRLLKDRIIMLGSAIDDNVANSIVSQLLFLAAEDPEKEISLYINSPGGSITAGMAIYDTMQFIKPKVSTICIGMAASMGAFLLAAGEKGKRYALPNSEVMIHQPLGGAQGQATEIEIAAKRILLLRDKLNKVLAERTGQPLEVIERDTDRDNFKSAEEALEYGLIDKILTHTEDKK
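ClpP 10 microg/mL final, pH 8 Tris/KCl buffer with BSA, glycerol, Tween-20; compound pinned in; FRET-FV substrate; RT 20 min; Ex320/Em430; ΔFRET vs ADEP 5.8 microM, DMSO, no enzyme.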
TRPV1 PAM = enhances activation of the human vanilloid receptor TRPV1. AID 540277. TRPV1-expressing cells, Fluo-8 calcium influx, capsaicin EC20 potentiation; host cell line not named in the record; control for the full effect not named in the record. potentiation, % at 8.33 µM. 0.02% of 320,000 active. Q8NER1; active means potentiation above 80%; inconclusive means 30% to 80%; inactive means below 30%; note: 0% is about no effect
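Fluo-8 calcium influx in TRPV1-expressing cells, kinetic read (ex 480/em 520 nm). Compound added and read 3 min for agonist activity, followed by capsaicin at EC20 final and 2 min further read for enhancement.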
Menin MLL FP FL = displaces fluorescein MLL peptide from human menin; Fluorescence polarization, fluorescein-MLL peptide displacement from menin; 290,000 tested, under 10 active; FP activity change, % at 61.4 µM; inconclusive = falling polarisation curve, or a change in total fluorescence; inactive = total fluorescence flat and polarisation flat or rising; no compound was filed as active; the % refers to the polarisation; negative = inhibition;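 note: % of control where 0% means no effect; inhibitors lower the polarisation; unlabelled MLL peptide was the positive control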
Starred values were filed as active, the others as inactive; ? = inconclusive; . = not tested or not shown; [ ] = another dose, or the depositor's remark.

Molecule | Sfp PPTase inh | TRPML1 inh | gsp antagonist | gsp agonist | ClpP mod | TRPV1 PAM | Menin MLL FP FL
CCN1C(=O)c2cccc3c(S(=O)(=O)N(C(=O)c4ccncc4)c4ccc(OC)cc4)ccc1c23 | -2% | 2 | ? | 1% | ? | -3 | -1.8
Cc1ccc(C)c(NC(=O)COC(=O)c2ccc3c(c2)OCO3)c1 | 6% | 3 | 26% | 21% | -3.3% | -12 | -2.3
Brc1cc2ccccc2[n+](Cc2ccccc2)c1 | . | -9 | 0% | 20% | 0.0% | 15 | .
Cc1cccc(NC(=O)CN(C)S(=O)(=O)c2cccc3cccnc23)c1 | 6% | 2 | -13% | -5% | 1.4% | 3 | 2.2
O=S(=O)(N[C@H](CO)c1ccccc1)c1ccc(Br)cc1F | . | 14 | 3% | . | 0.8% | . | .
Nc1nccc(N2CCCCC2)n1 | . | 3 | . | -43%[inhibitor] | 1.2% | . | .
O=C(/C=C/c1ccc(Cl)c([N+](=O)[O-])c1)Nc1ccc(NC(=O)c2ccco2)cc1 | 9% | 17 | -16% | 0%[15.4 µM] | . | 22 | -0.6
Fc1ccc(-c2cc(-c3cccs3)cc(-c3ccccc3)n2)cc1 | 4% | 50 | 2% | -11% | 28µM* | 6 | 2.3
Cc1cc(C)nc(N/N=C/c2ccc([N+](=O)[O-])o2)n1 | 79µM* | 9 | -18% | 45% | 0.7% | -32 | 3.8
CS(=O)(=O)Nc1ccccc1C(=O)NCCSc1ccc(Cl)cc1 | 2% | 4 | ? | ? | . | 0 | 0.6
Nc1cccc(C(=O)Nc2cccc3ncccc23)c1 | 5% | -1 | -1% | -37%[inhibitor] | -1.6% | -3 | -3.6
O=c1cc(CSc2nnc(COc3ccc(Cl)cc3)o2)c2ccccc2[nH]1 | 18% | 22 | -20% | -32%[inhibitor] | 0.1% | -16 | 2.6
O=C(O)/C=C/c1ccc2ccccc2n1 | 1% | 2 | -11% | -23% | -0.8% | 4 | 2.2
N#Cc1ccsc1NC(=O)c1cccc([N+](=O)[O-])c1 | 40µM* | 65 | -90% | 13%[15.4 µM] | . | ? | 5.9
COc1ccc(/C=C/C(=O)OCC(=O)NC2CCCCCC2)cc1 | . | -2 | . | 21% | -14% | . | .
CCN(C(=O)Cn1nnc(-c2ccccc2)n1)C1CCS(=O)(=O)C1 (stereo not given) | . | 0 | 13% | -6% | 109% | 1 | .
CCOc1ccc(S(=O)(=O)N2CCCC(C(=O)NCc3cccnc3)C2)cc1C (stereo not given) | 10% | 0 | 2% | -5% | . | -8 | -1.9
Cc1ccc(-n2c(O)cnc2Nc2nc(C)cc(C)n2)cc1 | -14% | 3 | -14% | -5% | 1.2% | 2 | 5.9
O=C(NCCc1ccc2c(c1)OCCO2)c1cc(S(=O)(=O)N2CCCC2)ccc1Br | . | 7 | -2% | 21% | -2.2% | . | .
O=C(Nc1nc(-c2cccs2)cs1)C1=COCCO1 | -15% | -6 | -23% | 1% | -5.9% | 23 | -0.2
Cc1ccc(NC(=S)N(CCCN2CCOCC2)Cc2cccnc2)cc1C | 13% | 0 | 8% | -7%[15.4 µM] | . | 0 | -2.8
CN1CCN(C(=O)c2ccccc2N(Cc2ccccc2)S(C)(=O)=O)CC1 | 2% | -13 | 10% | -28% | 0.8% | -9 | 7.3
C=CCOc1c(Br)cc(CNn2nnnc2N)cc1OCC | 20% | 9 | 3% | -12% | 0.5% | 18 | 4.7
CSc1ccccc1NC(=O)CN(C)CC(=O)Nc1ccc(N2CCOCC2)cc1 | -18% | 8 | -5% | -11%[15.4 µM] | . | -2 | 0.3
Fc1ccc(N2CCN(c3ccc4c(C(F)(F)F)cc(C(F)(F)F)nc4n3)CC2)cc1 | 25% | -9 | 14% | -27% | 0.5% | 1 | 0.9
Cc1cc(C)c(S(=O)(=O)N2CCN=C2c2ccccc2)c(C)c1 | 10% | 32 | 10% | -7% | -2.6% | -5 | 2.3
Cc1cc2ncc(S(C)(=O)=O)c(N)n2n1 | 15% | -13 | 10% | 6%[15.4 µM] | . | 25 | -0.1
O=C(CCc1c[nH]c2ccccc12)NCc1ccncc1 | 15% | 1 | 11% | 1%[15.4 µM] | . | 0 | -1.9
COC(=O)c1ccc(Cn2cc(/C=C\[N+](=O)[O-])c3ccccc32)o1 | 56µM* | -9 | 5% | -22% | . | 1 | 12
CCN(CC)CCNC(=O)c1ccc2c(=O)n(CCc3ccccc3)c(=O)[nH]c2c1 | 9% | 12 | 10% | 15% | -25% | 3 | 8.5

(listing goes on)
Molecule | Sfp PPTase inh | TRPML1 inh | gsp antagonist | gsp agonist | ClpP mod | TRPV1 PAM | Menin MLL FP FL
O=C(CC1SC(=Nc2ccccc2)N(Cc2ccccn2)C1=O)Nc1cccc(Cl)c1 (stereo not given) | 45µM* | ? | -21% | ? | -2.0% | -7 | 1.7
CCCCN1C(=O)N(c2ccc(Cl)cc2)C(C)(O)CC1(C)C (stereo not given) | 7% | 37 | 3% | 3% | . | -1 | -0.1
COc1ccc(CCn2ccc(O)c(Cc3ccc(Cl)cc3)c2=O)cc1OC | 13% | -1 | ? | -28% | 2.6% | 5 | -0.8
CC(C)OC(=O)CSc1nc(-c2ccc(F)cc2)nc2ccc(F)cc12 | 2% | -4 | 5% | -4% | -3.1% | . | 0.0
COc1cc(C2C3=C(CC(C)(C)CC3=O)N(C)C(=O)N2C)cc(OC)c1OC (stereo not given) | 11% | -7 | -4% | 8% | -1.3% | 4 | -2.0
O=C(Nc1ccc(Br)cc1Cl)c1cnccn1 | 16% | 12 | 1% | 35% | -1.7% | 0 | 5.4
COc1ccccc1C1/C(=C(/O)c2ccccc2)C(=O)C(=O)N1CCO (stereo not given) | 5% | -17 | 13% | 24% | -24% | -4 | 4.4
Clc1ccc2nc(N3CCN(c4ccccc4)CC3)sc2c1 | 2% | 27 | 0% | -31% | -0.3% | 12 | 4.8
CC(NC(=O)c1ccccc1NC(=O)c1ccccc1)C(=O)N1CCOCC1 (stereo not given) | 1% | -6 | 9% | -14% | -1.1% | 7 | 1.7
OCC1(CCOc2ccccc2)CCN(Cc2nc3ccc(F)cc3[nH]2)CC1 | 3% | 2 | -19% | 5%[15.4 µM] | . | -45 | 2.9
CCC(CC)C(=O)N(CCc1ccc(OC)cc1)Cc1nc2ccccc2c(=O)[nH]1 | -23% | 5 | ? | -8% | -6.7% | 7 | 2.6
NC(=S)N/N=C/c1ccc(-c2cccc([N+](=O)[O-])c2)o1 | -1% | -4 | -3% | -27% | 0.5% | -1 | 1.5
CSc1ccc(CN(C)C(=O)c2cc(=O)[nH]c3ccccc23)cc1 | 21% | -3 | -5% | 0%[15.4 µM] | . | -8 | -0.4
CCOc1ccccc1NC(=O)CSc1nnc(CCC(=O)Nc2ccccc2F)n1C | 11% | -8 | -8% | -7% | -0.6% | -10 | .
O=C1Nc2c(c(=O)[nH]c(=O)n2-c2ccccc2)C(C(F)(F)F)(C(F)(F)F)N1 | 4% | -7 | 4% | -4% | -0.4% | 0 | 0.6
COc1cccc(CNC(=O)COC(=O)c2cc([N+](=O)[O-])ccc2N2CCCC2)c1 | . | 10 | -28% | -15% | 0.7% | -9 | .
Cc1ccc(C)c(NC(=O)CN(C)C(=O)CSC(C)C(=O)Nc2cc(C)on2)c1 (stereo not given) | 5% | -7 | 10% | -3%[15.4 µM] | -2.9% | 3 | .
O=C(COCc1cc(-c2cccs2)on1)NC1CCCCC1 | 23% | 12 | 2% | -17% | -0.7% | -6 | 1.3
Cc1ccc(N2CC(C(=O)N3CCC4(CC3)CC(=O)c3ccccc3O4)CC2=O)cc1 (stereo not given) | . | -6 | -9% | -1%[15.4 µM] | 0.8% | 5 | .

Among those listed so far, seven have an NH in an aromatic ring.
Molecule | Sfp PPTase inh | TRPML1 inh | gsp antagonist | gsp agonist | ClpP mod | TRPV1 PAM | Menin MLL FP FL
O=c1cc(CSc2nnc(COc3ccc(Cl)cc3)o2)c2ccccc2[nH]1 | 18% | 22 | -20% | -32%[inhibitor] | 0.1% | -16 | 2.6
O=C(CCc1c[nH]c2ccccc12)NCc1ccncc1 | 15% | 1 | 11% | 1%[15.4 µM] | . | 0 | -1.9
CCN(CC)CCNC(=O)c1ccc2c(=O)n(CCc3ccccc3)c(=O)[nH]c2c1 | 9% | 12 | 10% | 15% | -25% | 3 | 8.5
OCC1(CCOc2ccccc2)CCN(Cc2nc3ccc(F)cc3[nH]2)CC1 | 3% | 2 | -19% | 5%[15.4 µM] | . | -45 | 2.9
CCC(CC)C(=O)N(CCc1ccc(OC)cc1)Cc1nc2ccccc2c(=O)[nH]1 | -23% | 5 | ? | -8% | -6.7% | 7 | 2.6
CSc1ccc(CN(C)C(=O)c2cc(=O)[nH]c3ccccc23)cc1 | 21% | -3 | -5% | 0%[15.4 µM] | . | -8 | -0.4
O=C1Nc2c(c(=O)[nH]c(=O)n2-c2ccccc2)C(C(F)(F)F)(C(F)(F)F)N1 | 4% | -7 | 4% | -4% | -0.4% | 0 | 0.6

An excerpt from above in order of their number in gsp agonist, highest first:
SMILES,gsp agonist
CCCCN1C(=O)N(c2ccc(Cl)cc2)C(C)(O)CC1(C)C (stereo not given),3%
NC(=S)N/N=C/c1ccc(-c2cccc([N+](=O)[O-])c2)o1,-27%
COc1ccc(CCn2ccc(O)c(Cc3ccc(Cl)cc3)c2=O)cc1OC,-28%

Outcome played no part in choosing rows; 4.9% or so of the library scored in one or more.
